# HSD17B inhib = HSD17B dehydrogenase inhibition; Q99714; recombinant HSD17B10, NADH fluorescence kinetic; many of its hits are not listed in these tables; Potency, µM (titrated, usually from 57.1 µM), for the others: top-dose activity change, negative = inhibition, most hits filed as inhibitors; actives 7.6% (n = 75,000); active means well fitted inhibition curve with a large enough effect; inconclusive means small, poorly fitted or top-dose-only effect; inactive means no such curve, though single readings can be large or run the other way;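 further: the protocol describes HADH2 (HSD17B10) and not the HSD17B4 of the title; nearly all actives have a fitted effect of over 70% in size; most hits overshoot -100% by far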
#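 His-tagged E. coli-expressed HADH2 at 20 nM in 100 mM Tris-HCl pH 9.0 with 0.01 % Tween-20, preincubated 15 min with compound at room temperature. Reaction with 1 mM NAD+ and 90 uM beta-hydroxybutyryl coenzyme A; NADH fluorescence (360/450 nm) read kinetically over 4 min, last minus first point.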
# An asterisk follows results filed as active; ? = inconclusive; [ ] = remark or other dose. On the % scale 0 is the no-effect control and ±100 the full control effect; potency means the concentration at half of the fitted maximal effect. Not all compounds are listed; count on the stated rates, not on these rows.
SMILES,HSD17B inhib
Cc1cc(Cl)cc2c1NC(=O)[C@]21[C@@H]2C(=O)N(Cc3ccccc3)C(=O)[C@@H]2[C@@H]2CCCN21,?
CCN1CCCC1CNC(=O)Cn1cccc1C(=O)c1ccccc1 (stereo not drawn),5%
CCS(=O)(=O)N1CCN(CC2CC3C=CC2C3)CC1 (stereo not drawn),7%
Cc1cccc(-c2c3c(=O)n(C)c(=O)n(C)c3c3cccnn23)c1,-1%
O=c1[nH]c(=O)n(CCOc2ccc(Cl)cc2)cc1Br,12%
CCOC(=O)CS(=O)(=O)c1nc(-c2ccccc2)cc(C(F)(F)F)n1,-9%
CCc1cc2c(NC(C(=O)O)C(C)C)ncnc2s1 (stereo not drawn),-3%
N[C@H](CCCC(=O)O)C(=O)O,7%
O=C(NCc1cccnc1)c1ccc2c(c1)OCO2,9%
CN(C)[C@@H]1C(=O)C(C(N)=O)=C(O)[C@]2(O)C(=O)C3=C(O)c4c(O)ccc(Cl)c4[C@H](O)[C@H]3C[C@@H]12,?
CCc1ccccc1NS(=O)(=O)c1ccc2[nH]cc(C(=O)NCC3CCCO3)c(=O)c2c1 (stereo not drawn),25µM*
COc1ccc(N2CC(C(=O)NCCCN3CCOCC3)CC2=O)cc1 (stereo not drawn),2%
O=C(NCCN1CCOCC1)c1cc(-c2cccs2)on1,-14%
CCOC(=O)c1sc2nc(SCC#N)n(CC3CCCO3)c(=O)c2c1C (stereo not drawn),-9%
CCOC(=O)N1CCN(C(=O)CN(c2cccc(C)c2)S(=O)(=O)c2ccccc2)CC1,-1%
O=C(O)c1cc(C(F)(F)F)nc2ccccc12,1%
O=C(O)C1Cc2c([nH]c3ccccc23)C(c2ccc3c(c2)OCO3)N1 (stereo not drawn),32µM*
CN(C)c1cccc2c(S(=O)(=O)Nc3ccccn3)cccc12,?
Cc1ccc(S(=O)(=O)N2CCCCC2C(=O)NCc2ccco2)cc1 (stereo not drawn),-15%
COc1cccc(-n2nnc3c(=O)n(CC(=O)N4CCC(Cc5ccccc5)CC4)cnc32)c1,9%
CCN(CCCNC(=O)C1CCCN(S(=O)(=O)CC)C1)c1cccc(C)c1 (stereo not drawn),-3%
CC(=O)CC1OC(=O)C(Br)=C1NCc1ccccc1 (stereo not drawn),-14%
COc1ccccc1-c1nnc(SCC(=O)OC(C)C)o1,-2%
CCCn1c(NC(=O)c2ccco2)nc2ccccc21,-2%
CCOC(=O)N1CCN(S(=O)(=O)c2cc(Br)cc3c2N(C(=O)C2CC2)CC3)CC1,9%
O=S(=O)(NC1CC1)c1cccc(S(=O)(=O)N2CCCC2)c1,-4%
CCn1cc(C(=O)OCc2cccc(Br)c2)c(=O)c2ccc(C)nc21,5%
COc1ccc(S(=O)(=O)N2CCC(C(=O)Nc3ccccc3C)CC2)c2cccnc12,-8%
COc1ccc(-n2c(C)c(C(C)=O)c(C(C)=O)c2C)cc1OC,3%
COc1cccc(CNCC(=O)N2C(C)CCCC2C)c1 (stereo not drawn),6%
CC(=O)Nc1cccc(NC(=O)CSc2nnc(Cc3cccn3C)n2CCc2ccccc2)c1,-2%
Cn1nc(C(=O)NCC2CCCO2)c2ccccc2c1=O (stereo not drawn),7%
CC(C)(C)C1CCC(OC(=O)c2ccncc2)CC1 (stereo not drawn),2%
CC(=NCc1ccco1)c1c(O)n(C2CCCCC2)c(=O)[nH]c1=O,-9%
CN(C)S(=O)(=O)N(CC(=O)Nc1ccccc1C(F)(F)F)c1ccccc1,-12%
COc1ccc(N(CC(=O)NCc2ccco2)S(C)(=O)=O)cc1,0%
CCOC(=O)c1c(NC(=O)Cc2cccs2)sc2c1CCCC2,-8%
COc1cc(CC(=O)Nc2sccc2C(N)=O)cc(OC)c1OC,-16%
O=C(CCC(=O)N(CC(=O)NC1CCCCC1)c1ccc2c(c1)OCO2)Nc1ccccn1,6%
COc1cccc(Nc2nc(N)nc(C(F)(F)F)n2)c1,4%
Cc1cc(N2CCOCC2)nc(NCc2ccccc2)n1,7%
O=C(c1cc2cc(Cl)cc(Cl)c2oc1=O)N1CCOCC1,-27%
CCS(=O)(=O)c1ccc(NC(=O)c2ccccc2Cl)c(O)c1,-10%
N=c1n(CCO)c2ccccc2n1CCOc1ccccc1,10%
CC(C)c1ccc2oc(=O)cc(CN3CCN(c4ccccc4)CC3)c2c1,-2%
Cc1cccc(N2C(=O)CC(N3CCOCC3)C2=O)c1 (stereo not drawn),-6%
COc1ccc(-c2nc(C3CCCCC3)no2)cc1OC,?
Cc1ccccc1NC(=O)C1CCCN1C(=O)NC1CCCCC1 (stereo not drawn),8%
CC(C)C(=O)Nc1cc(C(F)(F)F)ccc1N1CCOCC1,6%
CCCn1c(=O)c2ccccc2n2c(SCc3cc(=O)n4ccsc4n3)nnc12,7%
O=C(Nc1ccc(C(=O)N2CCCC2)cc1)c1ccccc1F,-9%
O=C(c1cc2n(n1)C(C(F)(F)F)CC(c1ccco1)N2)N1CCN(c2ccccn2)CC1 (stereo not drawn),-17%
COc1ccc(OCc2cccc(C(=O)N3CCCC3)c2)cc1,-2%
COc1ccc(N(CC(=O)NCCSc2ccccn2)S(C)(=O)=O)cc1Cl,-1%
CC(=O)c1cccc(NC(=O)c2ccco2)c1,-3%
CCOC(=O)C1=C(C)N=C2SC(C)C(=O)N2C1c1ccc(OC(C)=O)c(OCC)c1 (stereo not drawn),-1%
COc1ccc(OC)c(NC(=O)C2CCN(S(=O)(=O)c3cccs3)CC2)c1,0%
Cc1ccccc1-n1nnnc1SCC(N)=O,2%
CC1(C(=O)NCC2CC2)C=CC2(CCCCC2)N1C(=O)c1ccccc1 (stereo not drawn),-4%
Cc1cccc(-c2noc(CN(C(=O)C34CC5CC(CC(C5)C3)C4)C(C)C)n2)c1,16%

# Next part.
SMILES,HSD17B inhib
Cc1cc(C)nc(SCc2n[nH]c(=S)n2C)n1,5%
CCC(C(=O)Nc1nnc(-c2ccco2)s1)c1ccccc1 (stereo not drawn),?
CCCN1C=CC(=C2C(=O)c3ccccc3C2=O)C=C1,5%
COC(=O)c1ccc(CN(c2ccc(C)cc2)S(=O)(=O)c2ccc3c(c2)OCCO3)o1,-9%
O=C(CSc1nc2ccccc2o1)N1CCN(c2ccc(Cl)cc2)CC1,5%
CS(=O)(=O)Nc1cccc(-c2cc(NCc3ccccc3)ncn2)c1,?
CN(O)/C=c1/ccc2c(n1)C(=O)C=CC=2,-2%
O=S(=O)(C[C@H](O)C(Cl)(Cl)Cl)NNc1ccccc1,0%[11.4 µM]
Cc1ccccc1CN1CCNC(=O)C1CC(=O)O (stereo not drawn),5%
CN(Cc1ccccc1)C(=O)CCC(=O)N(C)Cc1ccccc1,12%
COc1ccc(S(=O)(=O)N(CC(=O)Nc2cc(C)on2)Cc2ccccc2)cc1,-5%
Nc1nc2ccc(S(=O)(=O)c3ccc4nc(N)sc4c3)cc2s1,10µM*
CN1C(=O)/C(=C2/C=CC=CN2C)OC1=S,-13%
CCOC(=O)c1[nH]c(=O)[nH]c1CSCCO,1%
CCN1C(=O)[C@H]2[C@H]3[C@H](O)[C@H](O)C/C(=N/NC(=O)OCc4ccccc4)[C@H]3CC[C@@H]2C1=O,-4%[11.4 µM]
COC(=O)c1sc(S(=O)(=O)NCc2cccs2)c(C(=O)OC)c1C,-3%
CCc1nnc(NC(=O)CSc2nccn2-c2ccccc2)s1,3%
CCN(CC)c1ccc(C(=O)Nc2cccc(F)c2)cc1,?
COCCn1c(C2CCCCC2)nc2sc3ccccc3c(=O)c2c1=O,1%
COc1ccc(C(=O)[C@H](Br)[C@H](Br)C(=O)O)cc1,-21%[11.4 µM]
O=C(c1cnccn1)N1CCC2(CCCN(c3cccc(-c4ccccc4)c3)C2)CC1,-6%
Cc1cc(C(=O)Nc2ccc(C(=O)O)cc2)c(-c2ccccc2)o1,?
CCCn1c(N2CCN(S(=O)(=O)Cc3ccccc3)CC2)nc2ccccc21,3%
NC(=O)c1cc(N2C(=O)C3CC=CCC3C2=O)ccc1N1CCCCC1 (stereo not drawn),1%
O=C(Nc1ccc(Br)c(Cl)c1)C1CC1,-7%
CC(C)CNS(=O)(=O)c1ccc(CCC(=O)NCc2ccco2)cc1,4%
Cc1ccccc1Cn1nc(C)c(NC(=O)c2cc3nc(-c4ccco4)cc(C(F)(F)F)n3n2)c1C,32µM*
O=C(CCCn1c(=S)[nH]c2ccccc2c1=O)NC1CCCC1,0%
COc1cccc(N2C(=O)C(CC(=O)Nc3ccccc3)N(C3CCCCC3)C2=O)c1 (stereo not drawn),2%
CCn1c(SCC(=O)Nc2ccc3c(c2)OCCO3)nc2c(c1=O)SC(C)C2 (stereo not drawn),-1%
Cc1ccccc1Cn1nc(C)c(NC(=O)c2noc3c2CCCC3)c1C,-6%
Cc1ccc(CNc2nc3ccccc3s2)s1,6%
O=C(CN1CCCc2ccccc21)NCc1ccc2c(c1)OCO2,1%
Cn1cc(S(=O)(=O)CC(=O)Nc2ccc3c(c2)OCO3)c2ccccc21,-12%
CC1(C)CC2C1CCC1(C)OC1CCC2(C)O (stereo not drawn),-9%
CCCn1c(SCC(=O)N2CCCC2)nc2c1c(=O)n(C)c(=O)n2C,6%
O=C(c1ccc(S(=O)(=O)N2CCOCC2)cc1)N1CCN(c2ccccc2)CC1,2%
C=CCn1c(=O)c(C(=O)Nc2ccccc2O)c(O)c2ccccc21,25µM*
CCOC(=O)Cn1nc(-c2ccc(C)cc2)ccc1=O,?
c1nc2sc3c(c2c2nnnn12)CCCC3,25µM*
c1cncc(-c2noc(-c3ccco3)n2)c1,-4%
N#Cc1cccc(-c2nc(Nc3ccncc3)c3ccccc3n2)c1,1%
COc1cccc(C2=NOC(C(=O)N3CCN(Cc4ccccc4)CC3)C2)c1OC (stereo not drawn),8%
CCCOCCOC(=O)c1[nH]c2c(c1C)C(=O)CC(c1cc(OC)ccc1OC)C2 (stereo not drawn),6%
O=C(Nc1ccc2c(c1)OCO2)N1CCN(C(=O)C2CCCO2)CC1 (stereo not drawn),-7%
CN1CC(=O)N=C1N,-1%
COc1ccccc1-c1nnc2sc(-c3cnccn3)nn12,-20%
C(=C/c1ccccc1)/c1ccccc1,-1%
COc1cc(C)nc(N2CCCC(C(=O)NC3CCC(C)CC3)C2)n1 (stereo not drawn),4%
CC(=O)OC1C(=O)[C@@]2(C)C(O)CC3OC[C@]3(OC(C)=O)C2C(OC(=O)c2ccccc2)[C@]2(O)CC(OC(=O)C(O)C(NC(=O)c3ccccc3)c3ccccc3)C(C)=C1C2(C)C (stereo partly drawn),-1%
CCc1ccc(-c2nc(CN3CCC(C(=O)N4CCN(c5ccccc5)CC4)CC3)c(C)o2)cc1,7%
COC(=O)N1CCC2(CCCN(c3cccc(-c4ccccc4)c3)C2)CC1,?
CS(=O)CCC(NS(=O)(=O)c1ccccc1)C(=O)O (stereo not drawn),14%
N#CC1=C(C2CC2)CC(c2ccccc2)C(C#N)=C1N (stereo not drawn),25µM*
COc1ccc(C2OCC3(COC(C)=O)C(C)C=C(C)C2C3C)cc1 (stereo not drawn),0%
Nc1nc2ncc(=O)[nH]c2c(=O)[nH]1,25µM*
CCOC(=O)CSc1nc(C)cc(=O)[nH]1,8%
O=C1NC2(CCOc3ccccc32)C(=O)N1CC(=O)N(Cc1ccccc1)C1CCS(=O)(=O)C1 (stereo not drawn),9%
CCOC(=O)CN(C(=O)CSc1nnc2c(n1)[nH]c1ccccc12)c1ccccc1,7%
Cc1ccc(-c2noc(CCCC(=O)N3CCOCC3)n2)cc1,7%

# The list goes on.
SMILES,HSD17B inhib
Cc1ccc(N2CCN(C(=O)c3ccccc3)CC2)c(C)c1,9%
CCOC(=O)C1CCN(C(=O)COc2ccc(Br)cc2)CC1,2%
O=c1c(-c2ccc3c(c2)OCCO3)coc2cc(O)cc(O)c12,?
COc1ccc(NC(=O)C2CCN(c3cc(-c4ccccc4)nc4ncnn34)CC2)cc1OC,-1%
O=C(Nc1ccccc1N1CCCC1)c1ccc(Br)o1,-7%
O=C(CSc1nc(Nc2ccccc2)nc(N2CCOCC2)n1)N1CCCC1,3%
CC(=O)OC1(C(F)(F)F)Oc2ccccc2NC1=O (stereo not drawn),-1%
CC(C)(C)NC(=O)C(c1ccco1)N(C(=O)Cn1nnc(-c2ccc(F)cc2)n1)c1ccccc1F (stereo not drawn),0%
